Assay outcomes from PubChem.
RanGTP-Impb inh = inhibitors of RanGTP-importin-beta interaction, primary screen, biochemical, FRET, CFP-Ran, YFP-importin-beta, homogeneous; cell-free CFP-Ran/YFP-importin-beta FRET ratio; inhibition, % (test concentration not listed); 1.1% of 300,000 active;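 active = most replicates above 15%; inconclusive = exactly half above 15%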;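 also: 0% = DMSO wells and 100% = Ran loaded with GDP instead of GTP; wells of about 40 µL received 100 nL stock; the first replicate is given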
Beta cell apopt = beta cell apoptosis inhibition; AID 435005; protection from apoptosis, % (concentration not given with the values); 0.8% of 300,000 active; INS-1E cytokine-induced death, ATP luminescence, 48 h; percent of positive-control rescue, neutral wells zero;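 active = all replicates at 75% or more, or half of them and the mean; inconclusive = half reach 75% but not the mean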;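 also: 0% = cytokine-treated negative control wells and 100% = positive control rescue; higher means more ATP so stronger rescue from cytokine killing; wells of about 40 µL received 100 nL stock; the first replicate is given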
Vif A3G = inhibitors of Vif binding to APOBEC3G peptide, primary screen, biochemical, TR-FRET, GST-Vif 1-94, biotin-A3G peptide, dose response retest (AID 1117319) | 0.57% of 260,000 active | TR-FRET GST-Vif / biotin-A3G peptide binding; higher % means a stronger effect; test concentration not given here; strong numbers were not always called active | one-dose inhibition, %; IC50 in µM for titrated hits;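 active = above the screen mean plus three standard deviations and confirmed in dose response; inconclusive = results disagree or hit not tested in dose response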;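 also: Vif residues 1-94 fused to GST binding biotinylated APOBEC3G peptide 110-148; 0% = full assay without inhibitor and 100% = GST in place of GST-Vif; retest series ran down from 100 µM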
T cruzi inh = blocks replication of Trypanosoma cruzi; T. cruzi beta-gal in NIH3T3, luminescence, 90 h; inhibition, % (no concentration beside the values); 1.4% of 300,000 active;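 active = mean inhibition across valid replicates above about 55%, limit read from the data; inconclusive = mean below that limit but half or more replicates reach it; inactive = mean below it, under half of replicates reach it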;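 also: signal also drops with host cell toxicity which is not excluded here; 0% = plate median of DMSO wells and 100% = zero luminescence signal; higher percent means less beta-gal luminescence so fewer parasites; stock transfer was 50 nL into about 50 µL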
Bfl-1 A1 inh = inhibitors of the anti-apoptotic protein A1, read as caspase activation; MEF A1-2A-BIM cells, Caspase-Glo 3/7 luminescence, 3 h; percent of clofoctol response, vehicle zero; caspase activation, % (concentration not given with the values); 0.066% of 330,000 active; AID 2462;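 active = over half of replicate activation scores above 10%, or exactly half above 10 with the replicate mean above 10; inconclusive = replicate mean below 10 yet half the replicates above 10; inactive = over half of replicates below 10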;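 also: wells of about 30 µL received 50 nL stock; many hits fall short of the cut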
rRNA inh HTS = inhibits bacterial ribosomal RNA function over humanized ribosomes | E. coli WT GFP vs humanized-ribosome RFP mutants, fluorescence, 24 h; hits give low values; DMSO median 0, no signal -100 | 1.6% of 350,000 active | GFP signal change (wild-type ribosome), % (concentration not given with the values);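 active = significant combined selectivity score with lowered wild-type GFP, culture density cut under 30%, mutant RFP and density less affected; inactive = any of these conditions unmet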; also: one replicate is shown; some compounds called inactive have numbers as strong as hits
AF4-AF9 inh = blocks AF4 peptide binding to human AF9; P42568; 0.47% of 350,000 active; AlphaScreen, biotin-AF4 peptide binding to FLAG-AF9; inhibition, % at 10 µM; AID 651704;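 active = every replicate reaching a set inhibition limit, whatever the replicate mean, cut at about 25% in these data; inconclusive = mean inhibition reaches that limit but some replicates miss it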;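 also: 0% = plate neutral control median and 100% = total signal loss; the record names both 10 and 1 µM as test concentration; the first replicate is given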
Target sequence (P42568 whole entry, looked up): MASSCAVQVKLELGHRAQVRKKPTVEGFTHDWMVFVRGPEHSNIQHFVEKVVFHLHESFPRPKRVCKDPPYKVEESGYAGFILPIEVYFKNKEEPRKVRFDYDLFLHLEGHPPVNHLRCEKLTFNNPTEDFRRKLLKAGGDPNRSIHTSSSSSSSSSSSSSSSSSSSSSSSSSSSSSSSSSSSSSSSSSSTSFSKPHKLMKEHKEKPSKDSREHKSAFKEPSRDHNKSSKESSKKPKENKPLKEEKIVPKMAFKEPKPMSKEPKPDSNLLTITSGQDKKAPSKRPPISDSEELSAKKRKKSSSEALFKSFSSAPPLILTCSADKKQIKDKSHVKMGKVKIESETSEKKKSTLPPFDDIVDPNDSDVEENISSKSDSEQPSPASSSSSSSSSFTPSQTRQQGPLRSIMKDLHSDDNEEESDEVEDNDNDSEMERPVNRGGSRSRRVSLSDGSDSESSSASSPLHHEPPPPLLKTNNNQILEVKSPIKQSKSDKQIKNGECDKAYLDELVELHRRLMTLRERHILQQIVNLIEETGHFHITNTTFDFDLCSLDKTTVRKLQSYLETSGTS
Calb FLC = affects C. albicans growth with fluconazole; C. albicans CaCi-2 (fluconazole-resistant clinical isolate) + fluconazole, Alamar Blue growth, 48 h; 0.57% of 300,000 active; growth inhibition, % (test concentration not listed); AID 1979;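 active = most replicates above 75%; inconclusive = exactly half above 75%; inactive = most below 75%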;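 also: all wells also contain fluconazole at 8 µg/ml as a sub-toxic cotreatment; 0% = median of DMSO wells and 100% = median of geldanamycin control wells; wells of about 8 µL received 7.5 nL stock; the first replicate is given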
rRNA inh HTS OD600 = further read-out of rRNA inh HTS, marked with its call; OD600 change, %; measured here: OD600 growth;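 optical density of the mix in the first replicate; 0 = DMSO median and -100 = no signal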
rRNA inh HTS RFP = second read-out of rRNA inh HTS, no call of its own (marks repeat the call); RFP signal change, %; measured here: RFP humanized mutant strains;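 first replicate; 0 = DMSO median and -100 = no signal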
An asterisk follows results filed as active; ? = inconclusive; · = not tested or not shown. The list is partial, so the mix of outcomes need not match the whole.

Structure | RanGTP-Impb inh | Beta cell apopt | Vif A3G | T cruzi inh | Bfl-1 A1 inh | rRNA inh HTS | rRNA inh HTS OD600 | rRNA inh HTS RFP | AF4-AF9 inh | Calb FLC
O=C(Cc1cccs1)N1CCN(S(=O)(=O)c2cccc([N+](=O)[O-])c2)CC1 | -1.1 | -2 | 31% | 3 | -0.2 | 5 | 7 | -3.7 | 0.5 | -6
COc1ccc(NC(=O)CC2CC3CCC2C3)cc1S(=O)(=O)N1CCOCC1 (centres undefined) | · | 2 | 1% | · | 3.0 | -8 | -17 | -1.5 | 0.5 | ·
Cc1ccc(NC(=O)N(CCCN2CCOCC2)Cc2cc3cc4c(cc3[nH]c2=O)OCO4)cc1 | -13 | -5 | 8% | 11 | 0.0 | · | · | · | · | 3
CCCC(CCC(=O)OC)(C(=O)OCC)c1csc(N)n1 (centres undefined) | -0.8 | -7 | -4% | -5 | -0.3 | · | · | · | · | 27
COc1ccc(CCNC(=O)C2CC(c3cccc([N+](=O)[O-])c3)=NO2)cc1 (centres undefined) | 0.0 | -2 | -2% | -5 | -1.8 | -2 | 2 | -3.6 | · | -12
Cc1ccc(-n2c(SCC(=O)Nc3cc(C)on3)nc3c(c2=O)SC(C)C3)cc1 (centres undefined) | -2.1 | 5 | 1% | 14 | 0.1 | 5 | 4 | -6.7 | 2.9 | -7
COc1ccc(-c2nnc(NC(=O)c3ccc(S(=O)(=O)N4CCc5ccccc5C4)cc3)o2)cc1 | 0.5 | 4 | -2% | 73* | 0.5 | · | · | · | · | 97*
O=C1N/C(=N/S(=O)(=O)c2ccccc2)S/C1=C/c1cccnc1 | -0.4 | -8 | 16% | -6 | 0.0 | 7 | 2 | 0.2 | -1.5 | -8
Nc1nonc1C(=O)NCCNCc1cc(Br)ccc1OCc1ccccc1F | -3.4 | 66 | 0% | 29 | -0.7 | · | · | · | · | -2
O=C(NC1CC2CCCC(C1)N2C(=O)Nc1ccc(Cl)c(C(F)(F)F)c1)C1CC1 (centres undefined) | 5.7 | 4 | -4% | 10 | 0.6 | · | · | · | · | 6
CCOC(=O)CSc1nnc(CNc2ccc(F)cc2)o1 | -3.7 | -4 | 0% | -14 | 1.5 | · | · | · | · | -3
COC(=O)c1cnc(Oc2c(Cl)cc(N)cc2Cl)cc1C(F)(F)F | -0.3 | 3 | · | 20 | -0.5 | -8 | -3 | -2.8 | 6.1 | -3
Nc1nc(SCC(=O)Nc2ccc(Cl)c(S(=O)(=O)N3CCOCC3)c2)n[nH]1 | 0.2 | -3 | · | -4 | 0.7 | 9 | 3 | 3.3 | -1.5 | 8
COc1ccc(OC)c(-c2csc(NC(=O)C3=NNC(=O)CC3)n2)c1 | -1.7 | -2 | -3% | -15 | 0.2 | -22 | -30 | -5.2 | 3.6 | 1
Cc1cc2nc[nH]c2cc1[N+](=O)[O-] | 1.0 | -8 | 2% | -6 | 1.1 | 1 | 1 | -2.3 | 0.1 | -5
Cc1c(Cl)c([N+](=O)[O-])nn1CC(=O)NC(C)C1CC2CCC1C2 (centres undefined) | 1.2 | -2 | 31% | 6 | 1.4 | · | · | · | · | -3
COc1cc(Cn2ccnc2)c(OC)cc1Cn1ccnc1 | 1.2 | 1 | -2% | 49 | 0.7 | · | · | · | · | -6
Nc1c(Sc2ccccc2)c(=O)[nH]c(=O)n1Cc1ccccc1 | 1.0 | -2 | · | -9 | 0.7 | · | · | · | · | -11
O=C(Oc1ccc(Cl)c(Cl)c1)C1=CC=CN2CCS(=O)(=O)N=C12 | · | -10 | · | · | -0.4 | -2 | 3 | -1.4 | 0.7 | ·
CC(SC(=S)N(C)Cc1cccs1)C(=O)O (centres undefined) | 6.2 | -3 | · | -7 | 0.7 | 3 | 4 | -2.1 | -0.8 | -13
CN1CCN(c2ccc([N+](=O)[O-])cc2C(=O)c2ccc(Br)cc2)CC1 | 4.9 | 3 | -1% | -15 | 0.2 | · | · | · | · | -6
CCOC(=O)c1ccccc1NC(=O)Cn1cnc2c(cnn2-c2ccccc2)c1=O | 2.2 | -3 | 6% | 16 | -0.7 | · | · | · | · | -10
CCCCCCNCc1cccc(Br)c1 | -2.2 | -4 | 8% | 5 | ? | · | · | · | · | -27
O=C(c1ccc(Sc2cccc(Cl)c2)c([N+](=O)[O-])c1)N1CCN(c2ccccn2)CC1 | 2.2 | 6 | -7% | 19 | -0.2 | -1 | 9 | -1.5 | 1.3 | -12
CCOc1cc(CNc2ccc(O)cc2)ccc1OCc1ccc(Cl)cc1Cl | 2.3 | 32 | ? | 11 | 0.0 | · | · | · | · | -5
O=C1CS/C(=N/N=C2CCCC2)N1 | 0.7 | 5 | -2% | -17 | 1.3 | · | · | · | · | 3
CCCCNC(=O)/C=C/c1cccs1 | -2.4 | -3 | -3% | -7 | -0.3 | · | · | · | · | -3
CCOc1ccc(-n2c(SCC(N)=O)nnc2-c2cccnc2)cc1 | 6.6 | 4 | 75% | -4 | 0.8 | 3 | 1 | -1.0 | · | 2
Cc1cc(NC(=O)COc2cccc(C)c2C)no1 | -3.0 | 0 | 5% | -15 | -0.9 | 5 | 7 | 0.0 | -7.1 | 1
CCOC(=O)c1c(S(=O)(=O)NCC(=O)N2CCN(c3ccc(OC)cc3)CC2)c(C)n(C)c1C | 4.1 | -4 | -1% | -12 | 0.0 | 8 | 7 | 0.5 | 4.4 | -2
Cc1ccc(S(=O)(=O)N2CCN(C(=O)CC(C)n3nc(C)c(Cl)c3C)CC2)cc1C (centres undefined) | · | -7 | · | 6 | -0.3 | -8 | -31 | 2.2 | -4.0 | ·
Cc1sc(NC(=S)NC(=O)C(C)(C)C)c(C(N)=O)c1C | -2.6 | -8 | -1% | 12 | -5.7 | · | · | · | · | 3
COc1ccccc1NC(=O)C1=C(C)Nc2ncnn2C1c1ccccc1C (centres undefined) | -3.2 | 2 | 7% | -13 | 0.8 | · | · | · | · | 16
O=C(c1csc(Nc2ccccc2Cl)n1)N1CCCC1 | ? | -6 | -1% | 1 | 0.0 | · | · | · | · | 9
COCCCN1C(=O)C(=O)/C(=C(/O)c2ccc(S(=O)(=O)N3CCOCC3)cc2)C1c1ccc(F)cc1 (centres undefined) | 4.3 | · | · | -3 | -1.0 | 6 | 5 | 1.1 | -3.0 | 1
O=C(Nc1c(-c2ccccc2)nc2sccn12)c1ccccc1 | -4.4 | -4 | 1% | -5 | 0.1 | · | · | · | · | 5
O=C(CCN1N=C(c2ccccc2)CCC1=O)NC1CCCC1 | -1.8 | -3 | · | -3 | 0.9 | 8 | 7 | 1.4 | -0.9 | -11
COc1ccc(NC(C)=O)cc1NC(C)C(=O)Nc1ccc(F)cc1 (centres undefined) | -2.1 | 4 | -1% | -6 | 2.0 | · | · | · | · | 2
Cc1ccc(CS(=O)(=O)CCC(=O)NCc2ccccc2Cl)cc1 | -1.8 | 2 | 4% | -8 | 0.3 | 7 | 3 | -0.4 | -2.2 | -5
Cc1ccc(C(=O)N/C(=C/c2cccs2)C(=O)NCC2CCCO2)cc1 (centres undefined) | -4.5 | -6 | 0% | -11 | 0.9 | 10 | 10 | 1.8 | 0.6 | -4
COCCn1c(Cc2ccccc2)nnc1SCC(=O)NC(C)(C)C | -3.6 | 0 | 6% | -12 | 0.9 | · | · | · | · | -11
Cc1cccc(NC(=O)C2CCCN2C(=O)Oc2ccccc2)c1C (centres undefined) | 3.9 | -5 | 24% | -6 | 0.2 | · | · | · | · | -7
O=C(NCc1ccccc1)C1CCN(S(=O)(=O)c2ccc(Cl)cc2)CC1 | ? | 5 | -5% | -3 | 0.4 | 2 | 6 | 0.1 | 0.6 | 20
COc1ccc(-c2sc3ccc(OC)cc3c2-c2ccc(OC)c(F)c2)cc1 | · | 4 | · | · | 0.4 | 6 | 3 | -12 | 1.7 | ·
C[C@@H](C(=O)OCC(=O)c1ccccc1)N1C(=O)C2CCCCC2C1=O (some centres undefined) | · | 1 | · | · | -0.4 | 2 | 2 | 1.1 | -1.7 | ·
COc1ccc(CC(=O)Nc2cc(Cl)ccc2C(=O)O)cc1 | -3.5 | 3 | 4% | · | 1.4 | -25 | -37 | -4.9 | -5.2 | -16
CCCCCCn1c(=O)c(C(=O)N/N=C/c2cccc(F)c2)c(O)c2ccccc21 | -2.5 | -6 | 6% | -2 | 0.8 | 16 | 13 | 4.2 | -2.0 | -12
CCOC(=O)C1=C(N)Oc2cc(O)ccc2C1c1ccc([N+](=O)[O-])cc1 (centres undefined) | ? | -4 | -7% | 57* | 0.5 | -44* | -34* | -0.3* | 9.2 | 19
CCc1ccccc1N(C(=O)c1snc(C(N)=O)c1N)C(C(=O)NCC1CCCO1)c1c[nH]c2ccccc12 (centres undefined) | 2.0 | 5 | · | 21 | 0.0 | 6 | 2 | 0.0 | 1.0 | -5
CCc1nnc(NC(=O)CCS(=O)(=O)Cc2ccccc2)s1 | -4.8 | 2 | · | -21 | 0.8 | 2 | 3 | 3.3 | -5.8 | 0

Next part.
Structure | RanGTP-Impb inh | Beta cell apopt | Vif A3G | T cruzi inh | Bfl-1 A1 inh | rRNA inh HTS | rRNA inh HTS OD600 | rRNA inh HTS RFP | AF4-AF9 inh | Calb FLC
COc1ccc(S(=O)(=O)N2CCc3ccccc32)cc1C(=O)N1CCC(C)CC1 | · | -6 | 5% | · | -0.2 | -26 | -48 | -3.7 | -0.2 | ·
COc1cccc(C(=O)NNC2=CC(=O)CC(C)(C)C2)c1 | ? | -4 | 10% | -3 | 1.1 | · | · | · | · | -7
O=C(O)c1ccc(N2CCCC2=O)cc1 | 12 | -4 | 1% | -12 | 0.4 | · | · | · | · | 41
COC(=O)CSc1nc2cc3c(cc2cc1C)OCO3 | 1.8 | -6 | · | -9 | -0.1 | 10 | 0 | 0.7 | -0.4 | -2
Cn1cccc1/C=N/NC(=O)c1ccc[n+]([O-])c1 | 4.1 | 0 | -8% | -14 | -0.4 | 14 | 11 | 3.1 | -1.9 | -21
Cn1c(=O)oc2cc(S(=O)(=O)Nc3cccc4c3CCCC4)ccc21 | 6.8 | -1 | 5% | -22 | -0.3 | · | · | · | · | 8
NC(=O)Nn1c(CCC(=O)O)ccc1-c1ccc(Cl)cc1 | 6.7 | -4 | 4% | 3 | 0.9 | 9 | -1 | 7.7 | 2.0 | -18
Cc1cccc(N(CC(=O)NC2CCCCC2)C(=O)CCC(=O)Nc2ccccn2)c1 | 5.1 | 4 | · | 10 | 0.9 | · | · | · | · | 22
O=C(CCNc1ccc(Cc2ccncc2)cc1)c1ccc([N+](=O)[O-])cc1 | 1.1 | -2 | 21% | 52 | 0.7 | 3 | 3 | -2.6 | 0.1 | -24
COC(=O)N/N=C/c1sc(N2CCCCC2)nc1-c1cccs1 | 0.2 | -13 | 10% | 19 | -0.5 | -21 | -21 | 2.2 | 19 | 22
